Bioassay records (PubChem)
Tgondii IFNg – blocks Toxoplasma gondii growth in the presence of IFN-gamma; Toxoplasma gondii growth in IFN-gamma-treated host cells; hits give low values; reference of the scale not given here; activity change, negative = inhibition, %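 (about 20 µM by stock and volumes)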; actives 3.8% (n = 69,000); AID 1259416;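 active means below -70%; inconclusive means fit judged invalid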;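 further: host cells are HeLa cells infected with Toxoplasma gondii; parasite growth read as luciferase light; one replicate is shown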
* marks the source's active call; other numbers are inactive results; i = inactive; ? = inconclusive; & = joins results of further samples. A portion of the library. The share of hits here may be higher or lower than overall.

molecule	Tgondii IFNg
O=C(Nc1ccccc1)[C@@H]1CCS(=O)(=O)[C@H]2CN(Cc3ccccc3F)C[C@@H]12	5.8
O=S(=O)(c1cccc2nsnc12)N1CCC2(CC1)Nc1ccccc1-n1cccc12	11.3
O=C(Cc1ccc(F)cc1)N1C[C@@H]2CN(CC3CC3)CCO[C@@H]2C1	2.7
CO[C@@H]1CN(C)C(=O)c2cc(NC(=O)Nc3ccccc3F)ccc2OC[C@H](C)N(CCC(F)(F)F)C[C@H]1C	-36.6
Cc1ccc(CN2CCN(Cc3cccn3-c3ccccn3)CC2CCO)o1 (stereo not drawn)	14.4
CCN1C(=O)CC(c2ccccc2)C12CCN(C(=O)[C@H]1CCCO1)CC2 (stereo partly drawn)	-18.7
Cc1ccc(S(=O)(=O)NCCc2csc(-c3cccc(F)c3)n2)cc1	-60.6
COc1cc(C2c3c([nH]c(=O)[nH]c3=O)Nc3ccc4ccccc4c32)ccc1OC(C)=O (stereo not drawn)	-112.0*
Cc1ccc(NCc2nnc(SCc3nnnn3-c3ccc(Cl)cc3)o2)c(C)c1	-2.4
CC[C@H](Cn1nc(-c2cccs2)ccc1=O)NC(=O)Cc1nc2nc(C)cc(C)n2n1	-27.4
CO[C@H]1CC[C@@H]2CCOc3ccc(C#N)cc3C(=O)N(C)C[C@@H](c3ccccc3)CC(=O)N(C)C[C@H]1O2	-46.0
Cc1cc(C(=O)N2CCc3c(COCCN(C)C)cncc3C2)no1	-28.8
CCS(=O)(=O)N1CC(=O)N2[C@H](CO)[C@@H](c3ccc(-c4cccc(F)c4)cc3)[C@@H]2C1	-30.7
Cc1nc(-c2ccccc2)sc1C(=O)N1CCCc2ccccc21	-29.3
O=C([C@H]1[C@H](CO)[C@H]2Cn3c(cccc3=O)[C@@H]1N2)N1CCc2ccccc2C1	0.9
O=C(CSCc1ccccc1)NCCCN1CCOCC1	16.9
COc1ccc(C(=O)NCCc2csc(-c3ccc(C(F)(F)F)cc3)n2)cc1	442.0
O=C(c1ccccc1)N1CCC[C@@H]1Cn1nnc(-c2cccs2)n1	24.6
COc1ccc(OC)c(S(=O)(=O)N2CCC[C@@H]2C(=O)NCCc2csc(C)n2)c1	11.2
Cc1ccc(NC(=O)Nc2ccc3c(c2)C(=O)N(C)[C@@H]2CC[C@@H](CC(=O)NCC(F)(F)F)O[C@@H]2CO3)cc1	-31.0

Following part.
molecule	Tgondii IFNg
COCCn1c(C(=O)NCCc2cccc(F)c2)cc2c1c1ccccc1n2C	-32.3
Cc1ccc(N2CC(C(=O)Nc3cc(-c4csnn4)ccc3C)CC2=O)c(C)c1 (stereo not drawn)	3.2
CSCc1noc(CN2CCCC3(C2)CN(C)C(=O)O3)n1 (stereo not drawn)	-30.6
COc1cccc(S(=O)(=O)N2C[C@@H](O)COC[C@@H]3O[C@H](CC(=O)NCCCN4CCOCC4)CC[C@H]32)c1	-12.8
Cc1ccc(NC(=O)N2CCCC3(CCCC(=O)N3C)C2)cc1 (stereo not drawn)	i
CC(=O)NCC(=O)N1C[C@H](N(C)Cc2cncnc2)[C@@H]2OCCC[C@@H]21	71.8
CCCCSc1ncc(C2CC(=O)Nc3snc(C)c32)cn1 (stereo not drawn)	-16.9
O=C(NCc1nc2ccccc2c(=O)[nH]1)C1CC2(CCNCC2)CN1 (stereo not drawn)	4.0
COc1ccc(S(=O)(=O)N2CC[C@@H]3[C@@H](CO)Nc4ccc(Br)cc4[C@@H]32)cc1	0.3
Cc1cc(C)n(C)c(=O)c1C(=O)Nc1ccc(-n2ccnc2C(C)C)cc1	10.2
Cn1cncc1CC1COC(=O)C1C(O)c1ccccc1 (stereo not drawn)	10.0
Cc1oc(=O)oc1COC(=O)C1=C([C@H]2CCCO2)S[C@@H]2[C@@H]([C@@H](C)O)C(=O)N12	5.8
Cc1noc(C)c1-c1nc(CN2C(=O)c3ccccc3S2(=O)=O)no1	97.6
Cc1[nH]nc(CCC(=O)NCC2=CCCCC2)c1C	-0.9
COc1ccc2c(c1)C=C(CN1CCc3nc(N)c(C(=O)N4CCOCC4)cc3C1)CO2	16.2
CN(C)C(=O)c1ccc(-c2ccccc2[C@@H]2[C@@H](C#N)N(C(=O)C3CC3)[C@@H]2CO)cc1	7.1
CCn1c(SCc2nc(-c3ccccc3)oc2C)nc(=O)c2c(C(=O)OC)cc(C3CC3)nc21	36.6
CSc1ncc(CN(C)C(C)c2ccco2)cn1 (stereo not drawn)	21.4
O=C(c1ccccc1C1CCNC1)N1CCN(C/C=C/c2ccccc2)CC1 (stereo not drawn)	-48.5
C[C@]12CCC(=O)C=C1C=CC1C2CC[C@@]2(C)C1CC[C@@]21CCC(=O)O1 (stereo partly drawn)	0.7&-2.1

(more compounds)
molecule	Tgondii IFNg
CCSC(=O)CCCCCCCCCCCO	2.6
O=C(O)CC1(CC(=O)Nc2ccc3sccc3c2)CCCCC1	91.8
CN1CCCC2(CC1)CCN(C(=O)CCNC(=O)c1ccc(F)cc1)CC2	3.7
O=C(NCC[C@@H]1CC[C@@H](NS(=O)(=O)c2ccc(F)cc2)[C@H](CO)O1)c1ccc2c(c1)OCO2	-8.6
CCc1nc2ccccc2n1C(C)C(=O)NCc1nnc(-c2ccccc2)o1 (stereo not drawn)	18.3
CCCOc1ccc(-c2noc(-c3c(O)c4ccc(F)cc4n(CC)c3=O)n2)cc1	27.9
Cc1ccc2nc(-c3cccnc3SCC(=O)N3c4ccccc4CC3C)[nH]c2c1 (stereo not drawn)	-16.3
Cc1cnn(Cc2nc(-c3ccc(NC(=O)c4ccco4)cc3)oc2C)c1	56.5
Cc1ccc(C2=NC3(CCN(CC(=O)Nc4ccc5c(c4)OCCO5)CC3)NC2=O)cc1C	53.0
CCc1nccn1CCC(=O)N1CC[C@@]2(O)CCCC[C@H]2C1	1.2
CN(Cc1cc(C(C)(C)C)n[nH]1)C(=O)c1cc(=O)n(C)c(=O)n1C	-1.7
CN1C[C@@H]2[C@H](c3ccccc31)[C@H](CO)N2C(=O)C1CCOCC1	-7.4
Cc1cc(C(=O)N2CCC(c3nc4ccccc4cc3N)CC2)sc1C	34.1
Cc1ccc(C(=O)CSc2nc(N)c(C(=O)c3ccc(C)cc3)s2)cc1	1.1
COc1ccc(C2=NC3(CCN(CC(=O)Nc4ccccc4F)CC3)NC2=O)cc1	26.4
CC(C)C(=O)N1CCC2(CCCN(c3nncs3)C2)C1 (stereo not drawn)	29.9
C[C@@H]1CN([C@H](C)CO)C(=O)CCCn2nncc2CO[C@@H]1CN(C)C(=O)Nc1ccnc(N2CCOCC2)c1	158.4
O=C(CCN1CCCCC1)NCC[C@H]1CC[C@@H](NS(=O)(=O)c2cccc(Cl)c2)[C@@H](CO)O1	-33.5
O=c1cc(-c2ccccc2)cc(-c2ccccc2)o1	115.8
COCC(C)NC(=O)c1ccc(C2SCC(=O)N2Cc2ccco2)cc1 (stereo not drawn)	14.6

(listing goes on)
molecule	Tgondii IFNg
Cn1c2c(c(=O)[nH]c1=O)C(c1ccc(O)cc1)C1=C(N2)c2ccccc2C1=O (stereo not drawn)	-28.6
CN(C)C(=O)C1(CCCc2ccccn2)CCCN1 (stereo not drawn)	3.0
Cc1ccc(S(=O)(=O)Nc2ccc3c(c2)C(=O)N([C@@H](C)CO)C[C@H](C)[C@H](CN(C)S(=O)(=O)c2cccs2)OCCCC[C@H](C)O3)cc1	-107.2*
O=C(NCc1cccnc1Oc1ccc(F)cc1F)[C@@H]1C[C@@H](O)CN1	-21.7
Cc1oc(-c2ccc(C(=O)NCCC3=CCCCC3)cc2)nc1CN1CCc2ccccc21	-48.0
CCCc1cc(N2C[C@H]3C[C@H](O)[C@H](O)C[C@H]3C2)nc(C)n1	9.7
CCOc1ccc(Nc2nc(N)nc(CN3CCN(C)CC3)n2)cc1	30.8
O=C(Nn1cnnc1)c1ccc2c(c1)OCO2	-4.3
O=C(NC1CC1)C1CN(Cc2cccn2-c2nccs2)CCN1 (stereo not drawn)	15.3
O=c1[nH]c2cc(F)ccc2c(O)c1-c1nc(-c2ccc(Br)cc2)no1	-2.6
Cc1ccc(C(=O)N2CCC3OCCCC3(COCC3CC3)C2)cn1 (stereo not drawn)	13.1
Cn1ccnc1CN1CCC2(COCCN(Cc3ccoc3)C2)C1 (stereo not drawn)	10.7
CCCNC(=O)N1CC2(C1)CN(S(C)(=O)=O)[C@@H](CO)c1c2c2ccc(OC)cc2n1C	14.7
O=C(Cc1csc(-c2ccccc2)n1)Nc1cccc(-n2cccn2)c1	-12.5
C[n+]1cccc(C(=O)O)c1	8.5
CN(C)CCCN(Cc1ccccn1)Cc1cn[nH]c1C(C)(C)C	-11.4
CCS(=O)(=O)N1Cc2cc(Oc3cccnc3)ccc2C1c1cnco1 (stereo not drawn)	3.4
Cc1nc(-c2ccc(F)cc2)sc1-c1ccc(SCCN2CCCCC2)nn1	1.7
Cc1nc(C)c(CC(=O)NCC2CCC(c3nnc(-c4cccs4)o3)CC2)s1 (stereo not drawn)	10.2
O=C(c1ccc2nccnc2c1)N1CCCCC1	13.8

(cont.)
molecule	Tgondii IFNg
O=S(=O)(c1ccc(F)cc1F)N1CCc2nc(-c3ccccc3)sc2C1	37.2
O=C(NCCc1csc(-c2ccc(C(F)(F)F)cc2)n1)C(=O)Nc1cc(F)ccc1F	12.9
Cc1nc(-c2ccccc2)sc1CCNC(=O)C(=O)Nc1ccc(F)cc1F	30.5
CCOc1ccc(S(=O)(=O)N2CCC3(CC2)Nc2ccccc2-n2cccc23)cc1	1.1
Cc1ccc(S(=O)(=O)N2C[C@@H]3[C@H](c4ccccc42)[C@H](CO)N3Cc2cccnc2)cc1	-13.7
Cc1c(NCc2cccnc2)cccc1C(=O)N1C[C@@H](C)O[C@@H](C)C1	-83.2*
Cc1ccc(NC(=O)CSC2=NC(=O)C(Cc3ccccc3)C(=O)N2)cc1 (stereo not drawn)	-25.5
Cc1cccc(Nc2nc(C(=O)NCc3ccccc3Cl)nc3ccccc23)c1	-58.9
CC1CCN(CCNS(=O)(=O)c2ccc3[nH]c(=O)ccc3c2)CC1	12.8
Cc1ccc(CN2CCCn3c(nc(CN(C)C)cc3=O)C2)s1	-59.7
O=C(Cn1c(=O)cc(-c2nc(-c3ccccc3)no2)c2ccccc21)N1CCCC1	-2.7
CSc1nc(-c2ccc(Cl)cc2)nc(SC)c1Cl	1.3
FC(F)(F)CCc1ccnc(-c2cccc3cccnc23)n1	15.3
COCC(=O)N1CC2(CCN(Cc3cccnc3)CC2)c2c(n(C)c3cc(OC)ccc23)[C@H]1CO	-52.5
COc1ccc(-c2nc(Nc3ccccc3OC)c3ccccc3n2)cc1	-72.0
Cc1cc(C)n(C(C)CNC(=O)c2cccc(C#CC(C)(C)O)c2)n1 (stereo not drawn)	-8.6
CC1CCN(S(=O)(=O)c2ccc3c(ccc(=O)n3CC(=O)NC(C)C)c2)CC1	1.1
O=C(Nc1ccc(OCC2CCCO2)cc1)c1cccnc1 (stereo not drawn)	-19.2
CCN1CCCC1CNS(=O)(=O)c1ccc2[nH]c(=O)ccc2c1 (stereo not drawn)	19.4
COc1cc2c(cc1CNCC(=O)Nc1ccc(C)cc1C)OCCO2	-7.6

New compounds follow.
molecule	Tgondii IFNg
O=C(NCc1cccnc1N1CCc2ccccc2C1)c1n[nH]c2c1CCC2	-10.3
COC1CC2CC1CN2C(=O)c1cnoc1C (stereo not drawn)	58.9
O=C(c1cccnc1)N1CC(=O)N2[C@H](CO)[C@H](c3ccc(-c4ccccc4F)cc3)[C@@H]2C1	11.3
CCN1c2ccc(C)cc2C(=O)NC12CCN(C(=O)c1cc(C)cc(C)c1)CC2	-19.5
COc1ccc2c3c(n(C)c2c1)[C@@H](CO)N(C)CC31CN(S(=O)(=O)c2cccc(C)c2)C1	15.7
COc1ccc(CNC(=O)Cn2ncc3c(N4CCCCCC4)ncnc32)cc1OC	-50.3
O=C(CN1CCN(c2nccc(N3CCCC(O)C3)n2)CC1)N1CCCC1 (stereo not drawn)	0.9
COc1ccc2c3c([nH]c2c1)[C@H](CO)N(C(=O)NC(C)C)CC31CCN(C(=O)c2cnccn2)CC1	20.0
CN1CC2CCCC(C1)C2CC(=O)NCc1ccco1 (stereo not drawn)	26.1
CC(C)N(Cc1nccn1C)C(=O)c1ccc(-n2ccnc2)cc1	6.9
COc1ccccc1S(=O)(=O)N1CC[C@@H]2[C@@H](CO)Nc3ccc(-c4ccc(C#N)cc4)cc3[C@@H]21	?
CNC(=O)C1(c2ccncc2)CCCN1 (stereo not drawn)	12.1
CCOc1ncccc1-c1cncnc1	-2.6
OC[C@@H]1[C@@H](c2ccc(-c3cccnc3)cc2)[C@H]2CN(Cc3ccccn3)CCCCN12	-4.8
COc1ccc(Cl)cc1-c1cncc(C(=O)N2CCCCC2)n1	-14.7
